Screens: PubChem BioAssay, National Center for Advancing Translational Sciences (NCATS)
VDR inhibitor: Inhibitors of the vitamin D receptor (VDR): qHTS; VDR-SRC2-3 peptide fluorescence polarization, 2 h; Potency, µM, inactives show max response, negative = inhibition, usual class: inhibitors; 400,000 compounds, 0.93% hits; active = well fitted inhibition curve with a large enough effect; inconclusive = small, poorly fitted or top-dose-only effect, or another doubt; inactive = no such curve, though single readings can be large or run the other way; also: series mostly up to about 120 µM
Target sequence (P11473 whole entry, looked up): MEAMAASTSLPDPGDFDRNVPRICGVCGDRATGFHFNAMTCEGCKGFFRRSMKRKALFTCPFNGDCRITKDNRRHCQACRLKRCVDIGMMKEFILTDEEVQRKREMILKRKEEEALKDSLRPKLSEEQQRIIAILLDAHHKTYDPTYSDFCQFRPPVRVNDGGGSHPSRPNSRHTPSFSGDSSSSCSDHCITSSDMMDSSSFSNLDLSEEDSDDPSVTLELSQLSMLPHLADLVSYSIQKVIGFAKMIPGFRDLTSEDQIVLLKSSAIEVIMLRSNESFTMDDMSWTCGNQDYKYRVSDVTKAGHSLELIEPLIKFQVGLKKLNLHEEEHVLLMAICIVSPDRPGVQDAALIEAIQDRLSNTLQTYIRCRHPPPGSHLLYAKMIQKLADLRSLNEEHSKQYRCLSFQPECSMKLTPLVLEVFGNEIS
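Signal is fluorescence polarization, reporting how far test compounds block the interaction of VDR with the SRC2-3 coregulator peptide after a 2 h room-temperature incubation.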
The depositor's hits bear a star; & = joins results of further samples; [ ] = another dose, or the depositor's remark. % is scaled to controls: 0 for no effect and ±100 for the full control effect; potency is read from the fitted curve at half-maximal effect.

What do the screens show for `CC(=O)c1cccc(NC(=O)c2ccc(N(Cc3ccccc3C)S(C)(=O)=O)cc2)c1`?
VDR inhibitor: 32.0%[activator]

Results for CCn1c(SCC(=O)N2CCOCC2)nnc1-c1cccs1 ?
VDR inhibitor: 8.1%

Results for COc1ccc([N+](=O)[O-])cc1NC(=O)c1ccc(CN(c2ccc(C)c(C)c2)S(C)(=O)=O)cc1 ?
VDR inhibitor: -13.8%

What do the screens show for `Oc1ccccc1-c1csc(-c2ccccc2)n1`?
VDR inhibitor: 3.5%

How did CC(C)(C)C1CCC(=NNC(=O)c2cc(-c3ccccc3)n[nH]2)CC1 (configuration not stated) do in these assays?
VDR inhibitor: -1.3%

What do the screens show for `O=C(NCc1ccccc1Cl)C1CCN(S(=O)(=O)c2ccc(N3CCCC3=O)cc2)CC1`?
VDR inhibitor: inconclusive

What do the screens show for `CCOC(=O)N/N=C1\CC(C)CC(C)(C)C1` (configuration not stated)?
VDR inhibitor: -6.4%

Results for O=C(COc1ccc([N+](=O)[O-])cc1)Nc1ccc2[nH]c(=O)[nH]c2c1 ?
VDR inhibitor: 6.8%

Results for CCOC(=O)N1CCN(C(=O)C2CCN(S(=O)(=O)c3ccccc3)CC2)CC1 ?
VDR inhibitor: 15.9%

What do the screens show for `COC(=O)[C@@H]1C[C@@]2(O)[C@@H](O)[C@@H](O)[C@@H](O)C[C@H]2N1Cc1ccc(C)s1`?
VDR inhibitor: -3.4%

Results for COc1cccc(CNCC2CCCO2)c1 (configuration not stated) ?
VDR inhibitor: -10.2%

How did Cc1ccc(C(=O)CSc2nnc(-c3cccs3)n2C)o1 do in these assays?
VDR inhibitor: -28.3%

What do the screens show for `CCS(=O)(=O)N1CC(=O)N(c2cccc(C)c2C)C(C)(C(=O)NC2CCCCC2)C1` (configuration not stated)?
VDR inhibitor: 13.7%

How did Cc1ccc(NC(=O)CCC(=O)OC(C)C(=O)c2ccccc2)cc1 (configuration not stated) do in these assays?
VDR inhibitor: 0.6%

Results for CCOC(=O)C(C)Sc1nc(-c2ccco2)cc(C(F)(F)F)c1C#N (configuration not stated) ?
VDR inhibitor: -26.2%

Results for C=CCn1c(C(CC(C)C)CC(C)O)n[nH]c1=S (configuration not stated) ?
VDR inhibitor: 1.8%

Results for COc1ccc(NC(=O)CN(c2ccccc2)S(=O)(=O)N(C)C)cc1OC ?
VDR inhibitor: -1.9%

How did CCCc1cc(=O)[nH]c(SCC(=O)Nc2cccc(S(=O)(=O)N3CCOCC3)c2)n1 do in these assays?
VDR inhibitor: -6.0%

How did COc1cccc(N/C(SC)=C(/C#N)C(=O)NCc2cccs2)c1 do in these assays?
VDR inhibitor: -6.7%

How did O=C(NCc1ccc(Cl)cc1)C1CCCN1C(=O)Nc1ccccc1 (configuration not stated) do in these assays?
VDR inhibitor: 0.2%

How did Clc1ccc(CSc2cc3c(nn2)-c2ccccc2CC3)cc1Cl do in these assays?
VDR inhibitor: 18.0%

How did Cc1c(NC2=NC3(CCCCC3)Cc3ccccc32)c(=O)n(-c2ccccc2)n1C do in these assays?
VDR inhibitor: 22.8%

How did Cc1ccc(-n2c(SCC(=O)N(C)C3CCS(=O)(=O)C3)nc3ccccc3c2=O)cc1 (configuration not stated) do in these assays?
VDR inhibitor: 4.0%

How did CCN(C(=S)NC(=O)c1ccccc1Br)C1CCCCC1 do in these assays?
VDR inhibitor: -12.3%

Results for COC(=O)c1c(NC(C)=O)sc(C(=O)Nc2ccccc2)c1C ?
VDR inhibitor: -2.1%

How did CCn1c(=O)n(-c2ccc(F)c(Cl)c2)c(=O)c2sc3ccccc3c21 do in these assays?
VDR inhibitor: -1.6%

How did CCC(C)C(=O)Nc1cc(C(=O)OC)cc(C(=O)OC)c1 (configuration not stated) do in these assays?
VDR inhibitor: -16.2%

Results for CCn1c(-c2csc3c2CCC(C)C3)n[nH]c1=S (configuration not stated) ?
VDR inhibitor: -23.6%

Results for CCc1ccc(NC(=O)CN2C(=O)CC(C)S(=O)(=O)c3ccccc32)cc1 (configuration not stated) ?
VDR inhibitor: -2.7%

How did CC(C)CNC(=O)COC(=O)c1ccc2c(c1)C(=O)N(Cc1ccco1)C2=O do in these assays?
VDR inhibitor: 24.7%

Brought forward from above: four compounds, followed by the next part.
How did CCC(C)C(=O)Nc1cc(C(=O)OC)cc(C(=O)OC)c1 (configuration not stated) do in these assays?
VDR inhibitor: -16.2%

Results for CCn1c(-c2csc3c2CCC(C)C3)n[nH]c1=S (configuration not stated) ?
VDR inhibitor: -23.6%

Results for CCc1ccc(NC(=O)CN2C(=O)CC(C)S(=O)(=O)c3ccccc32)cc1 (configuration not stated) ?
VDR inhibitor: -2.7%

How did CC(C)CNC(=O)COC(=O)c1ccc2c(c1)C(=O)N(Cc1ccco1)C2=O do in these assays?
VDR inhibitor: 24.7%

How did COc1ccc(NC(=O)COn2nnc3ccc(Cl)cc32)cc1OC do in these assays?
VDR inhibitor: -3.8%

Results for COc1ccc(CNC(=O)CS(=O)(=O)c2cccc3nsnc23)cc1 ?
VDR inhibitor: -6.3%

Results for CCCn1c(CCNc2nc(-c3cccc(Br)c3)cs2)nc2ccccc21 ?
VDR inhibitor: -3.7%

What do the screens show for `CC(O)CNc1nc2c(c(=O)n(C)c(=O)n2C)n1Cc1cccc(C(F)(F)F)c1` (configuration not stated)?
VDR inhibitor: 7.1%

What do the screens show for `C#CCOCCOCCOCCNc1nc(N2CCN(C(=O)[C@H](CO)n3cc([C@@H](N)C(C)C)nn3)CC2)nc(N2CCN(C(=O)[C@H](CCC(=O)O)n3cc([C@@H](N)[C@H](C)CC)nn3)CC2)n1`?
VDR inhibitor: -9.2%

Results for OC[C@@H]1CCC[C@@H](n2cnc3c(=S)nc[nH]c32)O1 ?
VDR inhibitor: -14.4%

Results for O=C(NC1CCCCCCC1)c1cc(F)c(F)cc1Cl ?
VDR inhibitor: -28.9%

How did Cc1c(NC(=O)Nc2ccc(Cl)cc2Cl)c(=O)n(-c2ccccc2)n1C do in these assays?
VDR inhibitor: -13.7%

Results for COc1ccc2c(c1)c(C(=O)N/N=C/c1cccc(Br)c1)c(C)n2C ?
VDR inhibitor: 8.0%

What do the screens show for `CCOc1ccc(N(CC(=O)Nc2c(C)n(C)n(-c3ccccc3)c2=O)S(=O)(=O)c2ccccc2)cc1`?
VDR inhibitor: 11.7%

How did CCOc1ccc(NC(=O)c2ccc(F)c(S(=O)(=O)NCc3ccc4c(c3)OCO4)c2)cc1 do in these assays?
VDR inhibitor: 4.1%

How did CC(C)NC(=O)C1CCN(C(=O)c2cnn(-c3ccccc3)c2-n2cccc2)CC1 do in these assays?
VDR inhibitor: 15.3%

How did Cc1ccccc1CS(=O)(=O)c1cn(CC(=O)N2CCOCC2)c2ccccc12 do in these assays?
VDR inhibitor: -21.7%

Results for COc1ccccc1OCC(=O)Nc1ccccc1C(=O)Nc1cccc(C(=O)O)c1 ?
VDR inhibitor: 2.9%

Results for Cc1ccc(C(=O)NCCc2ccc(Cl)cc2)cc1-n1c(C)nc2cccnc21 ?
VDR inhibitor: 15.2%

Results for COc1ccc(OC)c(S(=O)(=O)Nc2ccccc2O)c1 ?
VDR inhibitor: 13.3%

Results for O[C@@H]1CN(C2CCN(Cc3ccccc3)CC2)CC[C@H]1N1CCCCCC1 ?
VDR inhibitor: -0.2%

How did COc1ccc(NC(=O)CSc2nccn2C)c([N+](=O)[O-])c1 do in these assays?
VDR inhibitor: -28.0%

Results for COc1ccc(NC(=O)NC2COc3ccccc3C2)cc1Cl (configuration not stated) ?
VDR inhibitor: 4.6%

Results for CCOc1ccc(CNS(=O)(=O)c2ccc(-c3coc(C)n3)cc2)cc1 ?
VDR inhibitor: 10.4%

Looked up by structure from the list above, five records:
How did CCOc1ccc(NC(=O)c2ccc(F)c(S(=O)(=O)NCc3ccc4c(c3)OCO4)c2)cc1 do in these assays?
VDR inhibitor: 4.1%

How did CC(C)NC(=O)C1CCN(C(=O)c2cnn(-c3ccccc3)c2-n2cccc2)CC1 do in these assays?
VDR inhibitor: 15.3%

Results for COc1ccccc1OCC(=O)Nc1ccccc1C(=O)Nc1cccc(C(=O)O)c1 ?
VDR inhibitor: 2.9%

How did Cc1ccccc1CS(=O)(=O)c1cn(CC(=O)N2CCOCC2)c2ccccc12 do in these assays?
VDR inhibitor: -21.7%

Results for O[C@@H]1CN(C2CCN(Cc3ccccc3)CC2)CC[C@H]1N1CCCCCC1 ?
VDR inhibitor: -0.2%

Next records follow.
How did CCOc1ccc(S(=O)(=O)NCCc2cn3ccccc3n2)cc1 do in these assays?
VDR inhibitor: -26.9%

What do the screens show for `CSc1ncccc1C(=O)OCC(=O)Nc1ccc(S(=O)(=O)N2CCCC2)cc1`?
VDR inhibitor: -13.0%

What do the screens show for `N=c1sccn1CC(=O)Nc1ccc(Cl)cc1[N+](=O)[O-]`?
VDR inhibitor: -3.1%

What do the screens show for `COc1ccc2c(c1)C(c1cc(OC)c(OC)c(OC)c1)CC(=O)O2` (configuration not stated)?
VDR inhibitor: -11.0%

How did Cc1ccc(NCc2nc3ccccc3n2C)cc1C do in these assays?
VDR inhibitor: -9.6%

What do the screens show for `CC(=O)c1cccc(N(CC(=O)Nc2cc(C)cc(C)c2)S(C)(=O)=O)c1`?
VDR inhibitor: 5.1%

What do the screens show for `CCOC(=O)N1CCN(C(=O)CSCC(=O)Nc2nc(-c3ccc4c(c3)OCO4)cs2)CC1`?
VDR inhibitor: -20.6%

How did O=C(Nc1cc2ccc(O)cc2oc1=O)c1ccccc1 do in these assays?
VDR inhibitor: -2.4%

How did CCOc1ccc(-c2cc(CCCC(=O)NCCc3ccc(SC)cc3)no2)cc1 do in these assays?
VDR inhibitor: -1.9%

What do the screens show for `CC1CCN(S(=O)(=O)c2ccc3c(c2)oc(=O)n3CC(=O)NCc2ccc3c(c2)OCO3)CC1`?
VDR inhibitor: -27.4%

What do the screens show for `CCc1ccccc1NC(=O)CNC(=O)c1cn(Cc2ccccc2)nc1-c1cccnc1`?
VDR inhibitor: -24.8%

How did Cc1ccc(OCCC(=O)Nc2ccc(S(=O)(=O)N3CCCC3)cc2)cc1 do in these assays?
VDR inhibitor: 5.4%

How did O=C(O)c1ccccc1NC(=O)c1cc2ccccc2oc1=O do in these assays?
VDR inhibitor: 2.0%

Results for O=C(NNC(=S)Nc1cccc(C(F)(F)F)c1)c1cccc(Cl)c1 ?
VDR inhibitor: -16.0%

Results for COCCNC(=O)CSc1nc2cc3c(cc2c(=O)n1CCCC(=O)NCc1ccc2c(c1)OCO2)OCO3 ?
VDR inhibitor: 1.2%

What do the screens show for `O=C(CSc1nc(-c2ccccc2)[nH]c1-c1ccccc1)Nc1ccc2c(c1)OCO2`?
VDR inhibitor: 9.4%

How did CSCC[C@H](NC(=O)C(C)Oc1ccc(Cl)cc1)c1nc2ccccc2[nH]1 (some centres not stated) do in these assays?
VDR inhibitor: 1.1%

Results for CN(C(=O)c1ccc(Cl)c(S(=O)(=O)N2CCOCC2)c1)c1ccccc1C(=O)O ?
VDR inhibitor: -1.4%

How did CCN(CC)S(=O)(=O)c1cc(C(=O)Nc2cc(C)on2)c(Cl)cc1Cl do in these assays?
VDR inhibitor: -8.1%

Results for COC(=O)c1cc(NC(=O)Nc2cc(OC)ccc2OC)cc(C(=O)OC)c1 ?
VDR inhibitor: 4.9%

Results for CCOC(=O)Nc1cc(C(=O)OC)ccc1C ?
VDR inhibitor: 10.5%

How did CC(C)c1ccc(CCNC(=O)c2ccc([N+](=O)[O-])cc2)cc1 do in these assays?
VDR inhibitor: 5.9%

Results for CCn1c(=O)n(CC)c2cc(NC(=O)CSc3ccc([N+](=O)[O-])cn3)ccc21 ?
VDR inhibitor: 9.3%

How did Cc1ccc2[nH]c(=O)c(CN(CCCN3CCOCC3)Cc3nnnn3C3CCCC3)cc2c1 do in these assays?
VDR inhibitor: 14.4%

Results for COC(=O)c1ccc(C)c(NC(=O)CCn2[nH]c(=O)ccc2=O)c1 ?
VDR inhibitor: -6.9%

What do the screens show for `COc1ccc(CN2CCN(Cc3cccc(OC)c3)C(CCO)C2)cc1` (configuration not stated)?
VDR inhibitor: -5.5%

How did COCCCNC(=S)N1CCCC(c2nc3cc(C)c(C)cc3[nH]2)C1 (configuration not stated) do in these assays?
VDR inhibitor: -6.3%

How did CC(=O)N1CCN(S(=O)(=O)c2cccc(C(=O)OCC(=O)N3CC(=O)Nc4ccccc43)c2)CC1 do in these assays?
VDR inhibitor: -16.4%

What do the screens show for `Clc1ccc(/C=N/c2c(-c3ccco3)nc3ccccn23)cc1`?
VDR inhibitor: -16.2%

Results for COc1ccc(CN2C(=O)CS(=O)CC2=O)cc1OC ?
VDR inhibitor: 11.4%

What do the screens show for `COc1ccc(C2=NS(=O)(=O)N(C)C(C(=O)NC(C)c3ccccc3)=C2)cc1` (configuration not stated)?
VDR inhibitor: -16.0%&20.2%

What do the screens show for `CNC(=S)N(Cc1cccs1)Cc1cc2cc(OC)c(OC)cc2[nH]c1=O`?
VDR inhibitor: -8.0%

Results for CCC(C)NC(=O)c1sc2nc(C)c(C(=O)Nc3ccc(C)cc3C)c(-c3ccccc3Cl)c2c1N (configuration not stated) ?
VDR inhibitor: 10.1%

What do the screens show for `CCNC(=S)NNC(=O)c1csc2ccccc12`?
VDR inhibitor: 2.8%

Results for Cc1cccc(/C=N/Nc2cc(N3CCOCC3)nc(N3CCOCC3)n2)c1 ?
VDR inhibitor: -13.3%

How did CC(=O)c1ccc(OCCCCOc2ccc(C(C)=O)cc2)cc1 do in these assays?
VDR inhibitor: -4.1%

How did Cc1ccc(OCC(=O)N/N=C\c2ccc(C)o2)c([N+](=O)[O-])c1 do in these assays?
VDR inhibitor: 21.3%

How did C[C@@H]1CN([C@H](C)CO)C(=O)c2cc(NC(=O)Nc3ccc(C(F)(F)F)cc3)ccc2O[C@H]1CN(C)Cc1ccc(Cl)c(Cl)c1 do in these assays?
VDR inhibitor: -3.4%

How did COc1ccccc1CNc1ncnc2c1nc1n2CCCC1 do in these assays?
VDR inhibitor: -16.6%

Some of the compounds tested, so the mix of outcomes need not match the whole.
